miR-21 FLuc = miR-21 reporter, rising signal; HeLa miR-21 FLuc reporter, luciferase, 48 h; Potency, µM (highest dose often 38.3 µM), for the others: top-dose reporter change, positive = more light; 340,000 tested, under 10 active; AID 2288; active = well fitted rising curve with a large enough effect; inconclusive = small, poorly fitted or top-dose-only effect; inactive = no such curve, though single readings can be large or run the other way;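 also: % of control where 0% means no effect; miR-21 action dims this reporter so a rising signal means less miR-21 action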
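HeLa miR-21-FLuc reporter line, endogenous miR-21; 2000 cells/well in DMEM/10% FBS; compound titration up to ~40uM final, 48 h, 37 degree Celsius; luciferase detection reagent, 15 min lysis, CCD luminescence.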
GLA inh pH 4.5 = inhibitors of human alpha-galactosidase A at pH 4.5 | P06280 | purified enzyme, 4-MU-alpha-Gal fluorescence, pH 4.5 | activity change, negative = inhibition, % at 105 µM | 230,000 tested, under 10 active; inconclusive = small, poorly fitted or top-dose-only inhibition, or a rising curve; inactive = flat fitted curve, though single readings scatter; no compound was filed as active;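 also: 0% = full activity with enzyme and -100% = basal without enzyme; dose as in the result columns while the protocol names 77 µM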
Rango release inh = inhibitors of RanGTP-induced Rango-importin beta complex dissociation. O95149+P62826. Biochemical FRET Rango-importin beta, RanGTP-induced dissociation. Potency, µM (series often up to 46.1 µM), for inactives: top-dose activity change, negative = inhibition. 0.071% of 340,000 active; active means falling FRET ratio curve, often poorly fitted, with flat reads before Ran was added; inconclusive means other falling curves, or compound fluorescence or quenching; inactive means flat or rising ratio curve;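 also: potency is read from the fitted curve at half-maximal effect; % of control where 0% means no effect; nearly all actives have a fitted effect of over 45% in size; -100% = wells without RanGTP and RCC1; the record marks most hits as doubtful in a second field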
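Two FRET readings bracket the reaction: one 5 min after compound meets Rango–importin beta, another 45 min after RanGTP-RCC1 (0.6 uM Ran, 0.2 uM RCC1, 2 mM GTP) is added. Only the second defines inhibition.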
Rango-impB inh = inhibitors of Rango-importin beta complex formation; 0.031% of 340,000 active; Potency, µM (doses to about 92.2 µM), for the others: top-dose inhibition of complex formation; Rango CFP/YFP FRET sensor + importin beta, 45 min; AID 540263; Q14974; active = rising FRET ratio curve, often small or poorly fitted; inconclusive = mostly compound fluorescence or quenching in the first reads; inactive = flat curves in all reads;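 also: potency is read from the fitted curve at half-maximal effect; 0% = DMSO wells and 100% = buffer wells lacking importin beta; nearly all actives have a fitted effect of over 15% in size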
Target sequence (Q14974 whole entry, looked up): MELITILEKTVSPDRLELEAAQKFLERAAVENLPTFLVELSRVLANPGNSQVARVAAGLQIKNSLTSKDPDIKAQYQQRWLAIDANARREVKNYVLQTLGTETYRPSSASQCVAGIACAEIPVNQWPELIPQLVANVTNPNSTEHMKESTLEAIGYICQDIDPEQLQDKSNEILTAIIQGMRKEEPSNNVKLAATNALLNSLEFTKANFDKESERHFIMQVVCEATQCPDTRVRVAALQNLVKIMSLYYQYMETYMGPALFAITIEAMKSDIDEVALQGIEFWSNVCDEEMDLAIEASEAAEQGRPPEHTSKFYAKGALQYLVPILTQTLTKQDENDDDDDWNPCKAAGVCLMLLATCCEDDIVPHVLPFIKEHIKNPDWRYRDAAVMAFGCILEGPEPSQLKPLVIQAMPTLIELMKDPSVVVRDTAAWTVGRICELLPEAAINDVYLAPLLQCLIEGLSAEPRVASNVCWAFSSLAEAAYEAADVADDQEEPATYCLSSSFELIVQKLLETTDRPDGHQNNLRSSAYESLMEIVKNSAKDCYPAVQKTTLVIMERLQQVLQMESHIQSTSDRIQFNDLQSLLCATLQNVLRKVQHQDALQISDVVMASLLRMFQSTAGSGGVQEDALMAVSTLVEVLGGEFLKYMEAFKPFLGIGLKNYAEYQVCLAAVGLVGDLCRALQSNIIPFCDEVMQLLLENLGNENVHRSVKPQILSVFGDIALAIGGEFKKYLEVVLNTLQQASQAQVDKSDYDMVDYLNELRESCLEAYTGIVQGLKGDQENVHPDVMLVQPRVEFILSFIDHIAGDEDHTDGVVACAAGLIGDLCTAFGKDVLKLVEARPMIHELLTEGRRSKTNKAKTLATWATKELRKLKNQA
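FRET biosensor (snurportin 1 IBB flanked by EYFP and cerulean), 50 nM, with compound 5 min, then 0.125 microM importin beta in PBS, 1 mM DTT, 0.02% Tween-20, 0.1% BSA. CFP/YFP ratio read after 45 min at room temperature; pre-read flags interference.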
An asterisk follows results filed as active; ? = inconclusive; / = not tested or not shown; & = joins results of further samples; [ ] = remark or other dose. An excerpt (hit frequency here may not be typical).

# | SMILES | miR-21 FLuc | GLA inh pH 4.5 | Rango release inh | Rango-impB inh
1 | CNC(=O)CSc1nc2[nH]ncc2c(=O)[nH]1 | 3% | -6 | 24% | -0.1%
2 | Cn1nc(C(F)(F)F)c(-c2cccc(C(F)(F)F)c2)c1NC(=O)c1ccco1 | 4% | -7 | -4% | 0.7%
3 | Cc1ccc(NC(=O)C2CCCN2S(=O)(=O)c2ccc3c(c2)n(C)c(=O)c(=O)n3C)c(C)c1 (configuration not stated) | 3% | 0 | -7% | -4.9%
4 | CC(=O)c1cc(CC=C(C)C)c(O)c(CC=C(C)C)c1O | -12% | -2 | 13% | 9.1%
5 | Cc1nc2ccccc2n1CCC(=O)O | 0% | -2 | 11% | -0.3%
6 | CC(=O)O/N=C(\N)Cc1ccc(-c2csnn2)cc1 | -3% | -7 | -9% | -2.1%
7 | CCC(C)NS(=O)(=O)c1ccc(OCC(=O)NCc2cccnc2)cc1 (configuration not stated) | 3% | 4 | 14% | -4.0%
8 | O=C(CCCCC(=O)OCC1COCO1)OCC1COCO1 (configuration not stated) | / | / | -11% | -0.7%
9 | CS(=O)(=O)NN1C(=O)c2ccccc2NC1c1ccccc1 (configuration not stated) | -2% | -11 | 6% | ?
10 | CN=C1NN=C(c2cc(C)n(-c3ccc(Cl)cc3)c2C)CS1 | -52% | -14 | -17% | -3.8%
11 | CCOC(=O)C1CCN(S(=O)(=O)c2ccc(-c3ccccn3)s2)CC1 | 2% | -4 | 9% | -0.7%
12 | OC1(c2ccc3c(c2)OCO3)CCN(Cc2ccccn2)CC1 | 4% | 1 | 2% | -0.4%
13 | CSc1ccc(/C=C(/NC(=O)c2ccco2)C(=O)N2CCCCCC2)cc1 | 4% | / | -5% | -0.5%
14 | CC(C)(O)C#Cc1ccc(C(=O)N2CCN(c3ccc(Cl)cc3)CC2)cc1 | 3% | 0 | 5% | 0.1%
15 | O=C(C[N+]12CC[N+](CC(=O)c3ccc(F)cc3)(CC1)CC2)c1ccc(F)cc1 | 1% | / | 11% | 0.6%
16 | CC(C)C(=O)Nc1ccc(NC(=O)c2cccc(F)c2)cn1 | -45% | -3 | 14% | -0.9%
17 | O=C(CSc1cn(CC(=O)N2CCOCC2)c2ccccc12)N1CCOCC1 | -5% | / | -5% | -2.1%
18 | CC(C)(C)OC(=O)N1CCC(C(=O)Nc2ccc(C(=O)NCCc3ccccc3)cc2)CC1 | / | / | 8% | 0.7%
19 | CCOc1ccc(C(C)=O)cc1CSC(=N)N | -1% | 3 | -1% | 5.6%
20 | CCOc1ccccc1CN1CCC(CO)(CCOc2ccccc2)CC1 | -1% | -17 | 24% | -6.7%
21 | Cc1ccc(C)c(NC(=O)Cn2nnc(-c3ccc(N4CCOCC4)cc3)n2)c1 | 6% | 1 | -9% | -0.5%
22 | COc1ccc(C(C(=O)NC2CCCC2)N(CCCO)C(=O)Cn2nnc(-c3ccc(C)o3)n2)cc1 (configuration not stated) | 0% | / | -9% | 0.8%
23 | CCOCCc1c(O)nc(SCC(=O)NCc2ccco2)[nH]c1=O | 3% | -4 | 1% | 0.1%
24 | CC(=O)Oc1cccc(C(=O)Nc2c[nH]c(=O)[nH]c2=O)c1 | 1% | -4 | -12% | 0.3%
25 | COCC(=O)Nc1cc(OC)c(Cl)cc1OC | -4% | -14 | -13% | -4.6%
26 | CCCCN(C(=O)c1ccc2ccccc2c1)c1c(N)n(CCCC)c(=O)[nH]c1=O | / | / | 11% | -5.1%
27 | COc1ccc([C@H]2CC(=O)C=C(c3cccc(OC(F)(F)F)c3)C2)cc1 | / | / | -1% | -1.0%
28 | CCC(=O)N1CCc2cc(Br)cc(S(=O)(=O)N3CCC(C(=O)NC(C)C)CC3)c21 | -4% | / | -14% | -0.9%
29 | CCCN1CCc2nc(SCC(=O)Nc3ccc(C)c(Cl)c3)[nH]c(=O)c2C1 | 4%&-1% | / | -16% | ?
30 | O=C(CSc1nc2ccccc2[nH]1)NCCc1ccc(Cl)cc1 | -8% | 2 | 7% | -1.4%
31 | CC(=O)c1ccc(NC(=O)CSc2nc(=O)n3cccc(C)c3n2)cc1 | / | / | -30% | -1.5%
32 | CCCc1cc(=O)oc2c(C)c(OCC(=O)N3CCC[C@@H]3C(=O)O)ccc12 | 0% | / | 10% | -3.7%
33 | N#CCC1c2ccccc2CCN1C(=O)Nc1ccc(C(F)(F)F)cc1 (configuration not stated) | -3% | -9 | 25% | -1.1%
34 | O=S1(=O)CCC(NC(=S)Nc2ccc(Cl)cc2)C1 (configuration not stated) | -4% | 0 | 36% | 0.2%
35 | O=C(CN1C(=O)c2ccccc2S1(=O)=O)NCCSCc1c(F)cccc1Cl | 0% | / | 3% | -0.6%
36 | CCOC(=O)N1CCC(N2C(=O)c3ccccc3C2=O)CC1 | -10% | 11 | 14% | 2.5%
37 | N#CCC(=O)N/N=C/c1c2ccccc2cc2ccccc12 | -24% | / | ? | ?
38 | Cc1ccc(N2C(=N)/C(=C3/Nc4ccccc4S3)C(c3ccccc3)C2=O)cc1 (configuration not stated) | -22% | 7 | 6% | 3.6%
39 | CC(NC(=O)CSc1nc2sc3c(c2c(=O)n1-c1ccccc1)CCCC3)c1ccccc1 (configuration not stated) | -5% | 1 | 13% | -0.6%
40 | O=C(CCN1CCN(S(=O)(=O)c2ccc(Br)cc2)CC1)Nc1ccccc1F | 1% | -8[21.1 µM] | -12% | 0.1%
41 | COc1ccc2[nH]c(C)c(CCNC(=S)Nc3cccc(C)c3C)c2c1 | -5% | -7 | 10% | -6.5%
42 | CCOC(=O)CSc1nc2c(sc(=S)n2-c2ccc(OCC)cc2)c(=O)[nH]1 | 1% | -11 | -1% | -0.9%
43 | CCc1noc(N)c1C(=O)Nc1ccc(Cl)cc1 | -5% | / | -17% | -1.0%
44 | Cc1cccc(N2CCN(S(=O)(=O)c3ccc(-c4ccc(=O)[nH]n4)o3)CC2)c1C | -3% | / | 1% | -2.0%
45 | COc1ccccc1-c1ccc(Nc2ccc(C(=O)N3CCOCC3)cc2)nn1 | -17% | -1 | 4% | -2.9%
46 | CC(C)c1ccc2c(c1)C(N1CCN(C)CC1)Cc1cccnc1S2 (configuration not stated) | / | / | 2% | 2.7%
47 | COc1ccc(N2CCN(c3ccc(Cl)nn3)CC2)cc1 | -31% | -1 | 33% | -3.5%
48 | Cc1ccc(NC(=O)CSc2nnc(-c3ccco3)o2)cc1 | -15% | -18 | 7% | -1.3%
49 | C=CCNC(=O)/C(C#N)=C/c1c(N2CC(C)OC(C)C2)nc2ccccn2c1=O (configuration not stated) | 2% | 17 | ? | ?
50 | ClCCn1cnc2c(SCc3ccccc3Cl)ncnc21 | / | / | 1% | -0.4%
51 | COc1ccc(CCNC(=O)CCCn2c(SCC(N)=O)nc3cc4c(cc3c2=O)OCO4)cc1OC | -1%&-4% | 6 | / | /
52 | Cc1cc(C(=O)Cn2cncn2)c(C)n1CCc1ccc(F)cc1 | 7% | 4 | -7% | 4.2%
53 | Cc1ccc(-c2ccc(CCC(=O)O)n2NC(=O)c2ccco2)cc1 | -8% | 3 | 11% | 0.5%
54 | Cc1ccc(NC(=O)Nc2cc(Cl)ccc2C2COC(=O)C2=N)cc1 (configuration not stated) | -2% | 1 | -11% | -0.5%
55 | Cc1c(Cl)c([N+](=O)[O-])nn1CCCC(=O)Nc1cccc(O)c1 | 0% | 1 | -17% | 3.8%
56 | O=C1C2C3C=CC(C3)C2C(=O)N1c1cccc2ccccc12 (configuration not stated) | 2% | / | ? | -3.2%

Filtered by structure, those above containing a thiophene ring, fused or not
# | SMILES | miR-21 FLuc | GLA inh pH 4.5 | Rango release inh | Rango-impB inh
11 | CCOC(=O)C1CCN(S(=O)(=O)c2ccc(-c3ccccn3)s2)CC1 | 2% | -4 | 9% | -0.7%
39 | CC(NC(=O)CSc1nc2sc3c(c2c(=O)n1-c1ccccc1)CCCC3)c1ccccc1 (configuration not stated) | -5% | 1 | 13% | -0.6%

Other results
# | SMILES | miR-21 FLuc | GLA inh pH 4.5 | Rango release inh | Rango-impB inh
57 | Cc1ccccc1N1CC(C(=O)O)CC1=O (configuration not stated) | 0% | 4 | -19% | -0.6%
58 | O=C(N/N=C/c1ccc(N2CCOCC2)o1)c1cccc(F)c1 | -40% | ? | -6% | -0.8%
59 | O=C(NC1CC1)C1CCN(C2CCN(C(=O)CSc3ccccc3)CC2)CC1 | -3% | 4 | -18% | ?
60 | CCC(Sc1nc2ccccc2s1)C(=O)Nc1cc(C)on1 (configuration not stated) | -1% | -9 | 21% | 0.1%
61 | CCCCNC(=O)CCCCCn1c(=O)[nH]c2cc(OC)c(OC)cc2c1=O | -5% | -3 | -1% | 0.3%
62 | COc1ccc(CCNC(=O)CN2CCC(C(N)=O)CC2)cc1 | 1% | 4 | -5% | -0.9%
63 | Cc1ccc(NC(=O)CSc2nnc3ccc(-c4cccnc4)nn23)cc1 | / | / | -3% | -5.4%
64 | COc1ccc(NC(=O)c2cc(-c3cccnc3)nc3ccc(C)cc23)cc1OC | -11% | -14 | 6% | -0.4%
65 | ONC(=Nc1ccc(Cl)cc1)c1ccccc1Cl | -7% | -2 | 9% | -1.9%
66 | COC(=O)c1c(-c2ccc(OC)cc2)oc2ccccc12 | -7% | / | 50% | -3.2%
67 | CC(OC(=O)c1ccc(NC(=O)CC#N)cc1)C(=O)NC(=O)NC1CCCCC1 (configuration not stated) | -5% | / | -11% | ?
68 | O=C(N/N=C/c1ccc([N+](=O)[O-])o1)c1ccc(NS(=O)(=O)c2cccs2)cc1 | ? | -14 | 2% | -3.4%
69 | CCn1cc([N+](=O)[O-])c(C(=O)Nc2c(C)nn(Cc3cccc(F)c3)c2C)n1 | -3% | 3 | 1% | 0.2%
70 | CCCCN(C(=O)c1cccc(S(=O)(=O)N2CCN(C)CC2)c1)c1c(N)n(CCCC)c(=O)[nH]c1=O | / | / | 14% | -2.3%
71 | CC[C@H](C)[C@H]1CNC(=S)N1CC1CCN(CCC23CC4CC(CC(C4)C2)C3)CC1 | / | / | -13% | 0.0%
72 | CCN(CC)S(=O)(=O)c1ccc(NC(=O)c2cccc3c2C(=O)N(CCOC)C3)cc1 | -1% | 5 | -10% | -3.6%
73 | CCC(C(=O)NC1CC(C)(C)NC(C)(C)C1)c1ccccc1 (configuration not stated) | -3% | / | 4% | 3.0%
74 | CCc1cc2c(NCc3ccccc3)nc(C)nc2s1 | 14% | / | 1% | 3.6%
75 | CSCCC(NC(=O)c1ccco1)C(=O)N1CC(C)OC(C)C1 (configuration not stated) | / | / | -7% | -1.8%
76 | CCSc1nc2sc3c(c2c(=O)n1-c1ccc(C)cc1)CCN(C)C3 | 20% | / | ? | ?
77 | CCc1ccc(CNC(=O)C2CC(=O)N(C3CCCC3)C2)cc1 (configuration not stated) | -3% | / | -17% | -6.9%
78 | O=C(O)c1c[nH]c2c(C(F)(F)F)cccc2c1=O | -2% | 8 | -1% | -0.4%
79 | Cc1c(F)cccc1NS(=O)(=O)c1ccc2c(c1)c(=O)n(C)c(=O)n2C | 11% | 11 | -15% | 3.1%
80 | COc1ccc(-n2c(C)cc(C(=O)Cn3nnc4ccccc4c3=O)c2C)cc1 | -27% | -7 | 14% | -5.1%
81 | CN(c1ccccc1)S(=O)(=O)c1cc(C(=O)Nc2nc3ccccc3[nH]2)ccc1Cl | ? | -14 | 5% | 0.5%
82 | CC(=O)NCCc1cnc[nH]1 | 0% | / | 13% | 3.6%
83 | CCCCOc1ccc(N(CC(=O)NC(C)(C)CC)C(=O)CCC(=O)Nc2ccccn2)cc1 | 7% | 1 | 22% | -0.3%
84 | CCOC(=O)C1CCN(C(=O)c2cccc(S(=O)(=O)NCc3ccccc3)c2)CC1 | / | / | 3% | 3.0%
85 | O=C(NNC(=O)c1cc(Cl)ccc1O)c1cccc(S(=O)(=O)N2CCOCC2)c1 | / | / | 11% | -1.8%
86 | O=C1/C(=C/c2ccco2)SC(=S)N1CC1CCCO1 (configuration not stated) | -32% | -6 | 11% | -2.7%
87 | CC1=C(C)CC(C(=O)NNC(=O)c2cccc(Cl)c2)C(C(=O)O)C1 (configuration not stated) | -32% | -25 | -13% | -0.2%
88 | Cc1c(C(=O)NCCn2ccc3ccccc32)cccc1[N+](=O)[O-] | -5% | 6 | 2% | 0.5%
